Mtb MenB inh – M. tuberculosis MenB inhibitors, primary screen, biochemical, absorbance; MenB enzyme assay, absorbance read-out; some hits fall short of the stated cut; inhibition, %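 (about 12 µg/mL by stock and volumes)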; hit rate 0.43% among 100,000;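 active = mean of two replicates above 30%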;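 also: 0% = no compound and 100% = wells with inactive enzyme; the first replicate is given; strong numbers were not always called active; inactives centre near -10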
Target sequence (P9WNP5 whole entry, looked up): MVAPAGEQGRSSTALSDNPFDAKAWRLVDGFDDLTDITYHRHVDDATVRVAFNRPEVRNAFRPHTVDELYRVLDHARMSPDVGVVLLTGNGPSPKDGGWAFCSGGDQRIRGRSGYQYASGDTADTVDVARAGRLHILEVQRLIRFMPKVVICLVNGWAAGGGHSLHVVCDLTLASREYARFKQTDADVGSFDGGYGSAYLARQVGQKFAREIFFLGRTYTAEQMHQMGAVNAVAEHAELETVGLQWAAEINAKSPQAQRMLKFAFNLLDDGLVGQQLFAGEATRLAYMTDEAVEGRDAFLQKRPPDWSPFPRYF
Polio RdRp inh – poliovirus RdRp elongation inhibitors, primary screen, biochemical, fluorescence polarization, total intensity; poliovirus polymerase elongation; active compounds read low; % elongation, % (compound at 16.7 µg/mL); hit rate 0.66% among 150,000; AID 588519, 2011; in the data active = % elongation below about 90%; also: some results filed as inactive read as strong as hits
MbtI inh – MbtI salicylate synthase inhibitors, primary screen, biochemical, fluorescence intensity; P9WFX0; purified MbtI enzyme, fluorescence intensity read-out; inhibition, %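 (about 17 µg/mL by stock and volumes)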; hit rate 0.89% among 100,000;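 active = above 50% in both replicates, above 80% if mildly self-fluorescent; inactive = the rest, strongly fluorescent compounds included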;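 also: 0% = mean of negative and 100% = mean of positive controls; one replicate is shown; some compounds called inactive have numbers as strong as hits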
Target sequence (P9WFX0 whole entry, looked up): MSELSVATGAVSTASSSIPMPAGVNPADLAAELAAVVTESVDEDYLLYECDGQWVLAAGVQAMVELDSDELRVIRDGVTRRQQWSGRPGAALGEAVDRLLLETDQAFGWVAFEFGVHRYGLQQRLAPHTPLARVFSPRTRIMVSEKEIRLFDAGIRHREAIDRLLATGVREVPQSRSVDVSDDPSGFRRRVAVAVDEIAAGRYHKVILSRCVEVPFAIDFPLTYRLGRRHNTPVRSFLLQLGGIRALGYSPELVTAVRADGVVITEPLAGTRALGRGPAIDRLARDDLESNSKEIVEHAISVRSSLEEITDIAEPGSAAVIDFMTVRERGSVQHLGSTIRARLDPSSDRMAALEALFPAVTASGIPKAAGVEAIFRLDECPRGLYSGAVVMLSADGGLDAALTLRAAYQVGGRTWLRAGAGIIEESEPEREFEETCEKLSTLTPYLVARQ
Polio RdRp inh intensity – further read-out of Polio RdRp inh, marked with its call; % elongation; measured here: total intensity read-out; formula for this scale not given here;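 total fluorescence in place of polarization; lower means less elongation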
* marks the source's active call; other numbers are inactive results; nt = not tested or not shown; & = joins results of further samples.

SMILES	Mtb MenB inh	Polio RdRp inh	Polio RdRp inh intensity	MbtI inh
CSc1ccc(CNCc2ccncc2)cc1	12	98	101	-2
O=C(/C=C/OC(=O)c1ccc(Cl)cc1)c1ccc(Cl)cc1	-10	96	100	11
S=C(N/N=C/c1cccs1)N/N=C/c1cccs1	-75	108	115	13
O=C(COCc1cc(-c2ccco2)on1)Nc1cccnc1	-26	103	102	2
O=C(CSc1nc2cc(Cl)ccc2s1)NCc1ccc(F)cc1	nt	103	104	-4
Cc1cnc(C(=O)OCc2csc(-c3ccccc3)n2)cn1	-13	110	114	-11
CNC(=O)c1c(NC(=O)CC2SC(=O)NC2=O)sc2c1CCCC2 (configuration not stated)	-6	102	105	13
COc1ccc2nc3sc(C(=O)N(C)c4ccc(Cl)cc4)cc3cc2c1	-8	102	108	-4
Cc1ccc(S(=O)(=O)CC(=O)N2CCCC2)cc1	-31	104	104	54
O=C(COC(=O)c1cc(-c2ccccc2)nc2ccccc12)NCc1ccco1	-48	105	105	10
CCN1/C(=C2/SC(=S)N(N)C2=O)Sc2ccccc21	-9	104	116	-5
N#CCCN(Cc1ccccc1)C(=O)Nc1ccccc1	4	103	105	-9
CN(C)c1cccc2c(Br)ccc(N(C)C)c12	nt	101	99	2
O=c1c(NCCC2=CCCCC2)nccn1-c1ccccc1	12	104	105	-6
COc1ccc(NS(=O)(=O)c2cc(OC)ccc2NC(=O)c2cc(C)oc2C)cc1	-17	106	113	6
O=C(OCCCOc1ccc(F)cc1)c1ccc(-n2cnnn2)cc1	-3	97	99	-2
C/C(=N\NC(=O)COc1cccc(C)c1)c1ccco1	-28	100	101	16
Cc1ccc(CNC(=O)CN2C(=O)COc3cc(S(=O)(=O)N4CCC(C)CC4)ccc32)cc1	-12	102	104	-3
Cc1c(Cl)c(=O)oc2cc(OC(=O)C(C)NC(=O)OCc3ccccc3)c(Cl)cc12 (configuration not stated)	-16	103	100	nt
Cc1ccc(C)c(N2N=C(C(=O)OCn3nnc4ccccc4c3=O)CCC2=O)c1	-25	102	109	41
CSc1nsc(SC)c1C(=O)NC(=O)N1CCOCC1	-9	104	104	-1
CCC(CO)NC(=O)c1ccccc1C(F)(F)F (configuration not stated)	nt	100	100	-11
O=C(NCc1cccs1)c1cnn2cc(Br)cnc12	-2	103	105	-6
Cc1ccc(-n2ncc3c(=O)[nH]c(SCC(=O)Nc4ccc5c(c4)OCO5)nc32)cc1C	-2	102	104	9
OCc1ccc(OCc2cccs2)cc1	-23	102	103	-20

New compounds follow
SMILES	Mtb MenB inh	Polio RdRp inh	Polio RdRp inh intensity	MbtI inh
Cc1ccc(NC(=O)C2CC(=O)n3ncnc3N2)cc1C (configuration not stated)	-3	102	102	-4
CCOC(=O)c1c(C)oc2c1C1=NC(CC)CN1C=N2 (configuration not stated)	15	101	104	3
COCn1cnc2ccccc21	-5	104	108	-13
Cc1cc2ncn(Cc3nc(-c4cccc(Br)c4)no3)c2cc1C	-15	116	136	-13
Cc1nc2sccn2c1-c1nc(-c2ccccc2)c(C(=O)c2ccc3c(c2)NC(=O)CO3)s1	1	nt	nt	-2
CCN(CC)S(=O)(=O)c1cccc(-c2nn(CN(CCC#N)Cc3cccnc3)c(=S)n2CC(C)C)c1	-14	104	102	14
CCO/C=C1/C(=O)N(C)C(=O)c2ccccc21	10	17	39	23
CC(SCc1ccccc1)C(=O)Nc1ccccc1 (configuration not stated)	-20	101	102	-21
Cc1ccc2c(NC(=O)C(C)(C)C)cccc2n1	6	103	102	-17
CCN(Cc1ccc2c(c1)OCCO2)C(=O)c1ccc(-n2cccn2)cc1	-27	103	103	-10
O=c1c2c(-c3ccccc3)csc2nc2n1CCC2	-1	106	112	nt
CN(C)c1ccc(/C=C2\N=C(c3ccc(Br)o3)OC2=O)cc1	-5	76	194	5
COC(=O)c1ccc(S(=O)(=O)N2CCC(c3nc4ccccc4s3)CC2)cc1	-64	103	103	-5
COC(=O)c1ccc(Oc2nc(Nc3cccc(C)c3C)nc(N3CCC(C)CC3)n2)cc1	-14	102	107	3
Cc1nn(-c2ccccc2)c(N2CCCC2)c1/C=N/OCC(=O)Nc1ccc(F)cc1F	5	102	102	-20
C=C1C(c2ccc(C)cc2)=CCc2cc(C)cc(C)c21	3	102&101	104&102	1
CCC(=O)n1c(SC)nc2ccccc21	1	99	102	nt
Cc1cc(C)c(C#N)c(SCCCCSc2nc(C)cc(C)c2C#N)n1	-18	99	104	1
CN1CCOC(=O)/C1=N\Nc1cc(Cl)ccc1Cl	3	109	99	12
O=C(COC(=O)COc1ccccc1)Nc1cccc2ccccc12	nt	101	101	-14
CC1(C)S[C@@H]2[C@H](NC(=O)[C@H](N)c3ccccc3)C(=O)N2[C@H]1C(=O)OC1OC(=O)c2ccccc21 (some centres not stated)	2	98	100	-15
Cc1cc(C)nc(N/C(=N/S(=O)(=O)c2ccccc2)Nc2ccccc2)n1	-9	102	103	0
NCCC1COc2ccccc2O1 (configuration not stated)	14	99	104	-4
CCNc1nnc(-c2nn(CC(C)C)c(=O)c3ccccc23)s1	-27	98	103	-101
Cc1sc2ncnc(N3CCN(c4cccc(C(F)(F)F)c4)CC3)c2c1C	-48	97	96	nt

Some of the entries so far, as labelled records.
mol: CSc1ccc(CNCc2ccncc2)cc1
- Mtb MenB inh = 12
- Polio RdRp inh = 98
- Polio RdRp inh intensity = 101
- MbtI inh = -2
mol: O=C(/C=C/OC(=O)c1ccc(Cl)cc1)c1ccc(Cl)cc1
- Mtb MenB inh = -10
- Polio RdRp inh = 96
- Polio RdRp inh intensity = 100
- MbtI inh = 11
mol: S=C(N/N=C/c1cccs1)N/N=C/c1cccs1
- Mtb MenB inh = -75
- Polio RdRp inh = 108
- Polio RdRp inh intensity = 115
- MbtI inh = 13
mol: O=C(COCc1cc(-c2ccco2)on1)Nc1cccnc1
- Mtb MenB inh = -26
- Polio RdRp inh = 103
- Polio RdRp inh intensity = 102
- MbtI inh = 2

Profiles, quoted from the list. Screens in order: Mtb MenB inh, Polio RdRp inh, Polio RdRp inh intensity, MbtI inh
`Cc1cc2ncn(Cc3nc(-c4cccc(Br)c4)no3)c2cc1C` is listed as -15, 116, 136, -13
`O=c1c(NCCC2=CCCCC2)nccn1-c1ccccc1` is listed as 12, 104, 105, -6

Next section
SMILES	Mtb MenB inh	Polio RdRp inh	Polio RdRp inh intensity	MbtI inh
c1ccc(-c2nc3ccccc3o2)c(-c2nc3ccccc3o2)c1	-2	100	103	16
O=C(Nc1ccc(F)cc1)N1CCC2(CC1)C(=O)NCN2c1ccccc1	-1	101	101	3
O=C(NCC1COc2ccccc2O1)c1ccc2c(c1)OCO2 (configuration not stated)	-15	101	108	17
CSc1c2c(c(C#N)c3nc4ccccc4n13)CCCC2	11	101	127	-4
COc1ccc(C)cc1NC(=O)c1cc(C2CC2)[nH]n1	-3	103	99	-5
Cc1cc(NC(=O)c2cc3c(s2)CCCC3)no1	nt	104	104	-9
CC(C)c1ccccc1NS(=O)(=O)N(C)C	11	102	105	-7
COc1cc(C(=O)Nc2ccc3nc(N4CCN(c5ncccn5)CC4)cc(C)c3c2)cc(OC)c1OC	2	101	103	5
Cc1cc(=O)oc(C)c1C(=O)OCC(=O)c1ccc(Cl)c(Cl)c1	-28	100	103	9
Clc1ccc(Nc2nc(Nc3cccc(Cl)c3)nc(N3CCOCC3)n2)cc1	-5	104	103	8
COC(=O)c1cc2c(C(F)(F)F)cc(-c3ccccc3)nc2s1	nt	101	96	11
C/C=N/N(c1ccccc1)c1ccccc1	-25	105	101	-17
O=C(NCCc1ccccc1)c1cnc2sccn2c1=O	-21	100	104	109
CCN1C(=O)N(C)C2C1N(C)C(=O)N2CC (configuration not stated)	-36	103	102	-11
O=S1(=O)C=CC(Nc2ccccc2Cl)C1 (configuration not stated)	2	99	102	11
O=C(COC(=O)Cc1ccsc1)NCC1CCCCC1	nt	101	105	-7
CCOC(=O)c1c(C)[nH]c(C)c1C(=O)COC(=O)C1CC(=O)N(CCc2ccccc2)C1 (configuration not stated)	-3	95	94	12
Cc1cc(Cl)c(S(=O)(=O)N2CCSCC2)cc1OCC(N)=O	4	103	106	-13
CC1Cc2ccccc2N1C(=O)c1cc2sccc2n1Cc1ccc(F)cc1 (configuration not stated)	-53	102	103	2
O=C(COC(=O)c1ccc(O)cc1)NC(c1ccccc1)c1ccccc1	nt	100	100	-9
Cc1nn(-c2ccccc2)c(Cl)c1C(N)=O	-20	102	100	-16
O=C1N/C(=C/c2ccco2)C(=O)N1c1cccc(Cl)c1	-38	104	100	-5
O=c1c2c3c(sc2ncn1CCn1cnc2sc4c(c2c1=O)CCCC4)CCCC3	-2	100	101	-4
Oc1ccccc1N1CCN(CCOc2ccc(Cl)cc2Cl)CC1	-2	109	110	-12
Cc1ccccc1S(=O)(=O)Nc1nc2ccccc2nc1NCCO	-20	109	113	-18

(cont.)
SMILES	Mtb MenB inh	Polio RdRp inh	Polio RdRp inh intensity	MbtI inh
O=C(O)CN(CC(=O)O)Cc1cc2c(-c3ccccc3C(=O)O)c3cc(CN(CC(=O)O)CC(=O)O)c(=O)cc-3oc2cc1O	7	65	187	-28
CC(C)(C)C(=O)CSc1ccc(Br)cc1	nt	101	96	23
FC(F)(F)c1ccccc1CN1CCN(CC2CC3C=CC2C3)CC1 (configuration not stated)	-2	48*	60*	nt
Cc1ccc(/C(O)=C2/C(=O)C(=O)N(CCCN3CCOCC3)C23C(=O)N(C)c2ccccc23)cc1F (configuration not stated)	2	103	103	4
CN1CCN(C(=O)c2cc(N3CCCCC3)ccc2N)CC1	-16	102	101	15
O=C(O)c1ccc(S(=O)(=O)Nc2ccc3oc4c(c3c2)C(=O)CCC4)cc1	-20	103	105	-13
Cc1cnc(=O)[nH]c1SCc1ccc(Cl)cc1	11	102	109	9
O=C(/C=C/c1ccccc1)NCC1CCCO1 (configuration not stated)	-6	101	103	6
O=C(/C=C/c1ccc2ccccc2n1)NCC(F)(F)F	-12	124	126	18
Cc1ccc2c(CC(=O)NC(C)C)coc2c1C	4	104	104	-8
C=CCSC1=N/C(=C\C=C\c2ccco2)C(=O)S1	-74	105	107	10
CCOC(=O)N1CCN(c2ccc(Cl)c(Cl)c2)CC1	-11	101	101	-9
CCCCc1nc(-c2ccc(OCC)c(OC)c2)no1	-2	79	116	2
Sc1c(C=Nc2ccc(Br)cc2)sc2ccccc12	nt	101	96	38
O=C(NN=C1CCCC1)c1ccccc1NS(=O)(=O)c1cccs1	-21	98	102	-6
COc1ccc(-n2c(O)c(/C=N/c3ncn[nH]3)c3ccccc3c2=O)cc1OC	-1	97	88	2
O=C(Nc1ccc2ncccc2c1)c1ccccc1	-4	101	101	3
Cc1[nH]c2ccccc2c1/C=N/n1c(-c2cc3ccccc3o2)csc1=NC1CC1	2	106	115	8
CCc1nc2ccc(C(=O)N3CC(C)CC(C)C3)cc2nc1CC (configuration not stated)	-9	101	102	-30
O=C(O)CC(=O)N1CCSc2ccccc21	11	101	102	3
CS(=O)(=O)N1C(=O)CCC1=O	7	100	98	-9
O=C(CSCC(=O)Nc1ccccc1Oc1ccccc1)Nc1ccc2ccccc2c1	-24	107	112	nt
CN(C(=O)CSc1ncn[nH]1)C1(C#N)CCCCC1	3	106	106	-5
O=C(NC1CCCC1)c1ncoc1-c1cccs1	-58	100	104	103
COc1ccc(NC(=O)CN(C)S(=O)(=O)c2ccc(-c3ccc(=O)[nH]n3)s2)cc1	-23	102	104	-9

Continuation:
SMILES	Mtb MenB inh	Polio RdRp inh	Polio RdRp inh intensity	MbtI inh
COc1ccc(CNC(=O)c2cn[nH]c2-c2ccc(OC)cc2)cc1	1	104	97	1
CC(C)c1ccc(NC(=O)CNS(=O)(=O)c2ccccc2)cc1	-13	99	102	-2
Cc1[nH]c2ccc(OC(F)(F)F)cc2c1CCNC(=O)c1c(Cl)cnn1C	-14	104	105	nt
CCOC(=O)CC1CN(C)CCN1C (configuration not stated)	-44	105	100	-13
COc1ccc(NC(=O)c2cccs2)cc1OC	-18	103	106	nt
CCCCC(=O)Nc1ccc(C(=O)NCc2ccc(S(N)(=O)=O)cc2)cc1	-15	101	104	-6
COc1cccc(C(=O)OCC(=O)N(C)C)c1	6	105	97	25
CN(C(=O)Nc1ccc2c(c1)OCCO2)C1CCCCC1	16	99	95	3
O=C(NCc1ccccc1)c1nc(-c2ccccc2)no1	-26	106	103	-8
CCCc1cc(NCCc2ccc(OC)cc2)n2ncnc2n1	0	101	103	11
COc1cccc(CN2CCN(C(=O)Nc3cccc(OC)c3)CC2)c1	12	103	102	-6
Cc1ccc(NC(=O)CCC(=O)n2nc(C)cc2C)c(C)c1	-25	104	95	-9
CNC(=O)O/N=C(\N)c1nn(C(=O)NC)cc1Br	-14	104	101	-2
Cc1ccc(N2C(=O)CC(NCC(=O)O)C2=O)c(C)c1 (configuration not stated)	2	101	103	-7
O=C(CC(c1ccccc1)N(C(=O)Nc1ccccc1Cl)c1ccccc1)C1CC1 (configuration not stated)	1	106	103	nt
CCC(=O)NC(Nc1c(C)n(C)n(-c2ccccc2)c1=O)(C(F)(F)F)C(F)(F)F	-10	106	109	nt
COc1ccc(Nc2nc3ccc(Cl)cc3n3cnnc23)c(OC)c1	-24	101	104	5
CSc1ncc2c(=O)[nH]ccc2n1	4	103	103	-3
CCOC(=O)/C(=N\Nc1ccccc1Cl)N1CCCCC1	-19	103	106	-13
O=P12CN3CN(CN(C3)C1)C2	-10	101	105	-4

No new results follow: 3 of the compounds above.
SMILES	Mtb MenB inh	Polio RdRp inh	Polio RdRp inh intensity	MbtI inh
CCC(=O)n1c(SC)nc2ccccc21	1	99	102	nt
Cc1cc(C)c(C#N)c(SCCCCSc2nc(C)cc(C)c2C#N)n1	-18	99	104	1
CN1CCOC(=O)/C1=N\Nc1cc(Cl)ccc1Cl	3	109	99	12
